fixLJ activator: activators of Burkholderia fixLJ two-component system, primary screen, B. multivorans, GFP reporter | z-score (no concentration beside the values) | B. multivorans fixK-promoter GFP reporter, 18 h; stronger effect = higher value | actives 0.3% (n = 29,000);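 active = replicate mean overnight rise in green fluorescent reporter signal, 3 or more SD over negative controls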;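 also: score is relative to vehicle wells of the plate; 300 nL library stock went into each well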
Active calls of the source: *. These rows are one share of the data (hit frequency here may not be typical).

SMILES	fixLJ activator
CC1=C(C(=O)O)N2C(=O)[C@@H](NC(=O)C(N)c3ccccc3)[C@H]2SC1 (stereo partly drawn)	0.59
Cc1ccc2c(=O)cc(C(=O)Nc3ccc(S(=O)(=O)N4CCCCCC4)cc3)oc2c1C	0.12
CCOc1ccc(NC(=O)CCCOc2cc(=O)n(C)c3ccccc23)cc1	0.11
CC(C)C1CN(C(=O)c2n[nH]c3c2CCC3)CC(c2ccccc2)O1 (stereo not drawn)	-1.7
COc1ccc(C(=O)c2sc3nc4c(c(C(F)(F)F)c3c2N)CN(C(C)=O)CC4)cc1OC	-2.6
COc1ccc(-c2nc3ccccc3o2)cc1NC(=O)c1cccc2c(Cl)cccc12	-1.3
O=C(c1ccc2c(c1)N(Cc1ccc(Cl)cc1)C(=O)c1ccccc1S2=O)N1CCC(Cc2ccccc2)CC1 (stereo not drawn)	-0.44
Cn1c2c(c(=O)n(C)c1=O)C(c1cccc(O)c1)CC(=O)N2 (stereo not drawn)	-0.35
CCc1cccc(C)c1Nc1c(-c2cccs2)nc2ncccn12	-1.6
CN1CCN(C(=O)c2ccc3c(c2)N(Cc2ccc(C(F)(F)F)cc2)C(=O)c2ccccc2S3)CC1	-1.4
CCc1noc(NC(=O)c2cc(-c3ccccc3)nn2C)c1C	0.73
Cc1nc(CN(C)C(=O)CCCOCc2ccccc2)no1	-3.1
Cc1[nH]c2ccccc2c1C(c1ccccc1)c1ccc(Cl)s1 (stereo not drawn)	0.96
O=C(C1CC(=O)N(c2cccc(F)c2)C1)N1CCN(Cc2ncn[nH]2)CC1 (stereo not drawn)	-0.29
N#CC1=C2SCN(C3CCCCC3)CN2C(=O)CC1c1ccc(Cl)cc1 (stereo not drawn)	-0.07
O=C(NC1CCCCC1)c1cc2c(Cl)nc3ccccc3c2s1	-0.21
COc1cc(OC)cc(C(=O)NC2CCOCC2OCCO)c1 (stereo not drawn)	-2.3
CC(C)Cn1c(/C=C/c2ccc(F)cc2)nc2ccccc21	-3.3
COC(=O)c1ccc(Cn2nnc3c(=O)[nH]c(C4CCCN(S(=O)(=O)c5cccc(Cl)c5)C4)nc32)cc1 (stereo not drawn)	-0.62
Cc1ccc(C(=O)NC2(C(F)(F)F)N=C(c3ccccc3)N(C3CCCCC3)C2=O)cc1 (stereo not drawn)	-1

(further entries)
SMILES	fixLJ activator
COc1cccc(-c2nc(SCC(=O)NCC3CCCO3)c(-c3ccc(C)cc3)[nH]2)c1 (stereo not drawn)	-0.84
COc1cc2c(cc1NC(=O)c1ccccc1C)n(C)c(=O)n2C	-1.4
CCOc1ccc(-n2nc(CO)c(C(=O)NCc3cccnc3)n2)cc1	-0.48
Cc1c(NC(=O)Nc2ccc(Cl)c(Cl)c2)sc2nc3n(c(=O)c12)CCC(C)CC3 (stereo not drawn)	-0.49
Cc1cccc(Nc2c(-c3cccs3)nc3nc(C)cc(C)n23)c1	0.09
CO[C@H](C(=O)[C@@H](O)[C@@H](C)O)[C@@H]1Cc2cc3cc(O[C@H]4C[C@@H](O[C@H]5C[C@@H](O)[C@H](O)[C@@H](C)O5)[C@@H](O)[C@@H](C)O4)c(C)c(O)c3c(O)c2C(=O)[C@H]1O[C@H]1C[C@@H](O[C@H]2C[C@@H](O[C@H]3C[C@](C)(O)[C@H](O)[C@@H](C)O3)[C@H](O)[C@@H](C)O2)[C@H](O)[C@@H](C)O1	-1.7
COc1ccc2cc(C(C)C(=O)NC3(C(=O)O)CCCC3)ccc2c1 (stereo not drawn)	-0.07
O=C(NCCc1ccccc1)c1c[nH]c2ccc(S(=O)(=O)Nc3ccccc3F)cc2c1=O	-1.5
NC(=O)c1cc(NC(=O)NCC(=O)N2CCCC2)ccc1F	-0.74
Cc1cc(C(=O)NCc2cc3n(n2)CCCN(C(=O)N(C)C)C3)ccc1F	0.06
O=C(NCC1CC(=O)N(C2CCCC2)C1)c1onc2c1CCCC2 (stereo not drawn)	-2
CC(=O)NC1CCN(c2nc(C(C)(C)C)nc3c2cnn3C)CC1	0.14
O=C(Cc1ccccc1)Nc1cc(-c2nc3cc(Cl)ccc3o2)ccc1Cl	0.34
COc1ccc(CNCc2n[nH]c(=O)[nH]2)cc1CN1CCCC1	0.15
CN1CCCC(CCC(=O)N2CCc3nc(-c4ccccc4)[nH]c3C2)C1 (stereo not drawn)	1.2
Oc1ccc(Nc2nc(-c3ccc(Cl)cc3)nc3ccccc23)cc1	-1
CC(CCNC(=O)c1cc(-c2ccsc2)n[nH]1)n1ccnc1 (stereo not drawn)	-0.32
Cc1ccc(NC(=O)N2CC3CCCN3c3ccccc32)cc1C (stereo not drawn)	-0.99
CC(=O)NCc1cc2n(n1)CCN(C(=O)c1ccc(N3CCCCC3)cc1)C2	-2.4
Cc1nc(C(C)NC(=O)Cn2ccnc2-c2ccccc2)c(C)s1 (stereo not drawn)	-0.04

A second format for part of the listing above.
CC(=O)NCc1cc2n(n1)CCN(C(=O)c1ccc(N3CCCCC3)cc1)C2
- fixLJ activator = -2.4

Cc1nc(C(C)NC(=O)Cn2ccnc2-c2ccccc2)c(C)s1 (stereo not drawn)
- fixLJ activator = -0.04

Following part:
SMILES	fixLJ activator
Cc1nn(Cc2ccc(F)cc2)c(C)c1NC(=O)c1cc(CC(C)C)on1	-2.2
COc1ccc(CCN2C(=O)c3[nH]nc(-c4ccccc4O)c3C2c2ccccc2)cc1 (stereo not drawn)	0.73
COCCc1noc(C(C)NC(=O)c2cc(-c3ccc(O)cc3)n[nH]2)n1 (stereo not drawn)	0.26
O=C(CCc1nc2cccnc2n1Cc1cccs1)Nc1cccc(C(F)(F)F)c1	0.01
Cc1nc2c(c(C)c1CCC(=O)Nc1cccc(C(F)(F)F)c1)c(=O)n(C)c(=O)n2C	-0.25
CCCN(C(=O)c1cc2c(s1)-c1c(C)cccc1OC2)c1ccc(OCC)cc1	0.22
COc1cccc(NC(=O)C2CCCN(S(=O)(=O)c3c(C)[nH]c(=O)[nH]c3=O)C2)c1 (stereo not drawn)	0.69
CCN(C(=O)CCS(=O)(=O)c1cccc2nsnc12)c1cccc(C)c1	-2.5
COc1ccc2oc(=O)cc(CN3CCN(C(=O)c4ccccc4Br)CC3)c2c1	0.65
Cc1ccc(-c2c(C(=O)NCCc3ccc(Cl)cc3)oc(=O)c3ccccc23)cc1	1.6
CCN1CC(C(=O)NCCCc2nc(C)cs2)CCC1=O (stereo not drawn)	0.75
Cc1ccc(NC(=O)Cn2c(=O)oc3cc(S(=O)(=O)N4CCC(C)CC4)ccc32)cc1Cl	-0.21
COc1cccc(C(=O)NCC2OCCc3ccccc32)c1 (stereo not drawn)	-2
O=C(CCCn1c(=O)c2sccc2n(Cc2c(F)cccc2Cl)c1=O)NCc1ccccc1	1.2
CCC1CN(Cc2nc(-c3cc(OC)ccc3OC)oc2C)CCN1C (stereo not drawn)	-0.44
CN(Cc1ccccc1)Cc1c(O)ccc2c(=O)c(-c3ccccc3)c(C(F)(F)F)oc12	-1.6
CN(C1CCCCC1)S(=O)(=O)c1ccc2c(c1)c(=O)c(C(=O)N1CCN(c3ccccc3F)CC1)cn2C	-1.1
COC(=O)c1nnn(-c2ccc(Br)cc2)c1C(=O)OC	-1.2
Cc1ccc(-n2nc(CO)c(C(=O)NCCc3ccccc3)n2)cc1C	1.1
COc1cc2c(cc1OC)n(Cc1cccc(C(F)(F)F)c1)c(=O)n1nc(-c3ccccc3)nc21	0.14

Six entries already listed, ordered by number of heavy atoms, highest first:
SMILES	fixLJ activator
COc1cc2c(cc1OC)n(Cc1cccc(C(F)(F)F)c1)c(=O)n1nc(-c3ccccc3)nc21	0.14
CN(Cc1ccccc1)Cc1c(O)ccc2c(=O)c(-c3ccccc3)c(C(F)(F)F)oc12	-1.6
Cc1nc2c(c(C)c1CCC(=O)Nc1cccc(C(F)(F)F)c1)c(=O)n(C)c(=O)n2C	-0.25
CCCN(C(=O)c1cc2c(s1)-c1c(C)cccc1OC2)c1ccc(OCC)cc1	0.22
Cc1ccc(-n2nc(CO)c(C(=O)NCCc3ccccc3)n2)cc1C	1.1
COC(=O)c1nnn(-c2ccc(Br)cc2)c1C(=O)OC	-1.2

Continuation.
Structure,fixLJ activator
CC(C)c1ccc(NC(=O)C2CCN(S(=O)(=O)c3cccc4nonc34)CC2)cc1,-1.3
Cc1ccccc1Cn1c(SCc2ccc(C(=O)NCc3cccs3)cc2)nc2ccncc21,-1.3
COc1ccc(-c2coc3c2c(C)cc2oc(=O)cc(C)c23)cc1,-1.4
COc1ccccc1NC(=O)c1sc2nc(C)c(C(=O)Nc3ccc(C)cc3C)c(-c3ccco3)c2c1N,-0.58
CC(C(=O)NCc1ccccc1)N1CCc2c(c(CO)nn2C)C1 (stereo not drawn),-0.86
Cc1ccc(NC(=O)NC(C)c2c(-n3cccc3)sc(C)c2C)c(C)c1 (stereo not drawn),-1.6
COc1cc(NC(=O)c2noc3c2CC(C(C)(C)C)CC3)cc(OC)c1OC (stereo not drawn),-1.2
O=C(C1CCCCn2nnnc21)N1CCN(CCOc2ccccc2)CC1 (stereo not drawn),-1
CC1CCN(CC(=O)N2CCCc3c2c(=O)oc2ccc(OCc4ccccc4)cc32)CC1,-1.9
CCOc1ccc(NC(=O)c2cnc(Nc3ccccc3OC)c3ccccc23)cc1,0.41
Cc1ccc(-c2c3c(=O)n(C)c(=O)n(C)c3c3c(C(F)(F)F)nc4ccccc4n23)cc1,-0.84
CCCc1nnc(NC(=O)Cc2coc3ccc(C)cc23)s1,-0.39
COc1ccc(/C=C/C(=O)Nc2ccc3nc(N4CCCCC4)cc(C)c3c2)cc1OC,-0.49
COc1ccc2c(c1)OC[C@]1(C(=O)O)CN(Cc3nc[nH]c3C)CC21 (stereo partly drawn),-2.3
COc1ccccc1NC(=O)c1sc2nc(C)c(C(=O)Nc3ccc(Cl)cc3)c(-c3ccc(Br)cc3)c2c1N,0.6
Cc1ccc(Sc2ccc(N3CCC(C(=O)Nc4ccc(Cl)cc4)CC3)nn2)cc1,-0.37
O=C(c1csc(-c2ccccc2)n1)N1CCC(c2ncn[nH]2)CC1,0.19
CCCN1CCC(CCNC(=O)N2CCC(n3nc(C)cc3C)C2)CC1 (stereo not drawn),1.5
Cc1ccccc1Nc1c(-c2cccs2)nc2cccc(C)n12,0.35
N#Cc1cc2c(=O)n3ccccc3nc2n(-c2nnc(SCc3ccccc3)s2)c1=O,-1.2

(listing goes on)
Structure,fixLJ activator
COc1cc(NC(=O)c2cc(-c3cccs3)on2)c(OC)cc1Cl,-0.06
COc1ccc(-c2cc3nc(N)cc(=O)n3[nH]2)cc1,-1.8
Cc1ccc(C)c(NC(=O)Cn2cc(C(=O)C3CCCCC3)c3ccccc32)c1,-1.1
CCCc1nc2ccccc2n2c(-c3ccc(C)cc3)c3c(=O)n(C)c(=O)n(C)c3c12,-1.2
O=C(CCNC(=O)c1cccc2cnccc12)Nc1cc(F)ccc1F,2
COc1ccccc1N1CCN(S(=O)(=O)c2c(C)sc3ncn(CC(=O)N(C)c4ccc(Cl)cc4)c(=O)c23)CC1,-2.2
CC(C)(O)C#Cc1ccc(CN2CCc3[nH]ncc3C2)s1,1
CCOc1ccccc1NC(=O)c1c(NC(=O)c2ccccc2)sc2c1CCCC2,-1.1
Cc1nccc(N2CCOc3c(O)cc(-c4cccnc4)cc3C2)n1,0.6
O=C(CC1NCCNC1=O)Nc1ccccc1F (stereo not drawn),0.6
CN1[C@@H]2CC(OC(=O)[C@H](CO)c3ccccc3)C[C@H]1[C@@H]1O[C@@H]12 (stereo partly drawn),-1.8
O=C(CCC(=O)NC1COCC1Cc1ccnc2ccccc12)NC1CCCC1 (stereo not drawn),0.13
Cn1cc(CCCNC(=O)c2cn[nH]c2-c2ccccc2)cn1,0.11
Cc1ccc(-c2nc(-c3cc4cccc(OCc5ccccc5F)c4oc3=O)no2)cc1,-1
CSc1cccc(NS(=O)(=O)c2ccc3[nH]cc(C(=O)N4CCCCCC4)c(=O)c3c2)c1,-0.6
CCN(CC)S(=O)(=O)c1ccc(C(=O)NCCSc2c(-c3ccc(F)cc3)[nH]c3ccccc23)cc1,1
Nc1nc2c(c(=O)[nH]1)N(C=O)C(CNc1ccc(C(=O)N[C@@H](CCC(=O)O)C(=O)O)cc1)CN2 (stereo partly drawn),-0.99
O=C(NCCSc1c[nH]c2ccccc12)c1ccccc1Cl,-1.1
COc1ccc(C2=NC(C)(C)N(CC(=O)Nc3cc(OC)cc(OC)c3)C2=O)cc1,1.2
O=C1CCC(C(=O)NCCc2nc(-c3cccnc3)no2)=NN1,-1.5

Going on with the list.
Structure,fixLJ activator
COc1ccc(NC(=O)Cn2cnc3ccc(S(=O)(=O)N4CCC(C)CC4)cc3c2=O)c(OC)c1,-0.06
CCCN1Cc2cccc(C(=O)Nc3ccc(OC)cc3OC)c2C1=O,0.14
O=C(NCc1cccnc1Oc1ccc(F)cc1F)c1c[nH]c(=O)c(Cl)c1,0.51
CN1C(C(=O)c2ccccc2)=C(OC(=O)c2ccc(Br)cc2)c2ccccc2S1(=O)=O,1
O=C(C1CCC1)N1CC2CCC(C1)N(C(=O)c1n[nH]c3ccccc13)C2 (stereo not drawn),-1.5
NS(=O)(=O)c1ccc(NC(=O)CN2C(=O)COc3ccc(Cl)cc32)cc1,-1.7
Cc1nc2nc(CNC(=O)OC(C)(C)C)nn2c(C)c1CCC(=O)NCc1ccccc1Cl,-2.7
Cc1ccc(OCC(=O)Nc2ccc(-c3nc4ccccc4o3)cc2)c(C)c1,-1.4
Cn1c(CN2CCCCC2)nc2cc(NC(=O)c3ccccc3Cl)ccc21,-1
Nc1nc2nc(-c3ccc(Cl)cc3)cc(C(F)(F)F)n2n1,0.31
Cc1ccc(NC(=O)CC(=O)NCCOc2cccc(C(=O)O)c2)cc1,-1.4
CSc1ccc(/C=C/c2nc3ccccc3n2S(=O)(=O)c2cccc(Cl)c2)cc1,-0.64
CCN(Cc1ccccc1)C(=O)Cn1c(=O)n(Cc2ccccc2)c(=O)c2c1c1cc(OC)ccc1n2C,-2.1
CCN(CC)CCOC(=O)c1ccc(Nc2c3c(nc4ccccc24)CCC3)cc1,-0.22
CN(Cc1nc2ccc(F)cc2[nH]1)CC1CC(=O)N(c2ccccc2)C1 (stereo not drawn),-1.1

Compound activity as filed in PubChem BioAssay.
